Screening data as filed in PubChem.
MgrA-DNA mod – modulators of Staphylococcus aureus MgrA DNA binding; fluorescence polarization; inhibition, %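 (about 10 µg/mL by stock and volumes)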; 84,000 tested, 0.13% active; AID 602314;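 active = above 50% in either of two replicates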;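 note: 0% = protein plus DNA without compound and 100% = DNA alone without protein; higher means less MgrA bound to DNA so lower polarization; one replicate is shown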
Sa helicase inh – blocks Staphylococcus aureus DNA helicase; purified S. aureus helicase, fluorescence unwinding assay; about half of the hits fall short of the stated cut; inhibition, %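 (tested at about 80 µM)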; 120,000 tested, 0.05% active;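 active = both duplicates at 50% or more, or one of them with a favoured structure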;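 note: 0% = mean of negative control wells and 100% = mean of positive control wells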
The depositor's hits bear a star; nt = not tested or not shown; & = joins results of further samples.

Values in the order – Sa helicase inh | MgrA-DNA mod
> Cc1cc(C)c2c(N)c(S(=O)c3ccc(C(C)(C)C)cc3)sc2n1 (stereo unspecified)
    8 | 1.9
> c1ccc(OCCn2cnc3ccccc32)cc1
    1 | nt
> COc1ccc(Nc2nc(N3CCN(S(=O)(=O)N(C)C)CC3)nc3ccccc23)cc1
    11 | 3.2
> O=S(=O)(c1ccc2c(c1)OCCO2)N1CCN(c2cccc(C(F)(F)F)c2)CC1
    -3 | nt
> Cc1nc2ccc(C(=O)OCC#N)cc2nc1C
    14 | nt
> O=C(N/C=C/c1ccco1)OCc1ccc(C(F)(F)F)cc1
    nt | 2.5
> O=C(Nc1cccc(Cl)c1)c1ncn(-c2ccccc2)n1
    -16 | 1.2
> Cc1ccc(C2C(C(=O)O)c3ccccc3C(=O)N2C)o1 (stereo unspecified)
    25 | nt
> Fc1nc(N2CCCC2)c(F)c(Oc2ccc(Cl)cc2)c1F
    -30 | nt
> O=S(=O)(CCSc1nc2ccccc2s1)c1nc2ccccc2s1
    0 | -2.9
> COc1ccc(/C=N/n2cn[nH]c2=S)cc1
    -32 | nt
> O=C(Oc1ccc(-c2nnco2)cc1)C1CCN(S(=O)(=O)c2ccccc2C(F)(F)F)CC1
    7 | nt
> Cc1cc(N2CCCC2c2nc3ccccc3s2)n2ncnc2n1 (stereo unspecified)
    -6 | nt
> Cc1cc(C)nc(Sc2nnc(C)c3ccccc23)n1
    nt | -2.0
> CCC(=O)NCCc1nc2ccccc2n1CC(=O)c1ccccc1
    -16 | nt
> O=C(O)COc1cc(C(F)(F)F)cc(C(F)(F)F)c1
    0 | nt
> CCOC(=O)CSc1nc2ccc(OCC)cc2[nH]1
    -9 | nt
> Cc1ccc(NC(=O)/C(C#N)=N/Nc2ccc(C(=O)O)cc2)c(C)c1
    -12 | nt
> Cc1ccc2nc(NC(=O)C(C)(C)C)[nH]c(=O)c2c1
    nt | -0.2
> C#C[C@]1(O)CC[C@H]2[C@@H]3CCC4=Cc5oncc5C[C@]4(C)[C@H]3CC[C@@]21C
    nt | 4.9
> CC(C)(C)C(=O)OCOC(=O)[C@@H]1N2C(=O)[C@@H](NC(=O)[C@H](N)c3ccccc3)[C@H]2SC1(C)C
    nt | 1.3
> NC(=O)C1CCN(C2=NS(=O)(=O)c3ccccc32)CC1
    -4 | nt
> COc1cc(C(=O)N2CCn3c(C)ccc3C2C)cc(OC)c1OC (stereo unspecified)
    -3 | 4.6
> CC(NS(=O)(=O)c1ccccc1C#N)C1CC2CCC1C2 (stereo unspecified)
    15 | nt
> COc1ccc(C2=CC(c3ccccc3)SC(N)=N2)cc1 (stereo unspecified)
    11 | -2.0
> CCC1(C)Cc2c(C#N)c(N)sc(=S)c2CO1 (stereo unspecified)
    12 | -0.2
> CCOC(=O)c1cc2occc2n1C(C)C(=O)OCC (stereo unspecified)
    12 | 0.3
> O=C(NCCc1ccccc1)C1CCN(Cc2cnn(-c3ccccc3)c2-n2cccc2)CC1
    13 | nt
> COc1ccc2c(C)cc(=S)[nH]c2c1
    10 | nt
> Cc1nn(S(=O)(=O)c2cc(C(F)(F)F)cc(C(F)(F)F)c2)c(C)c1Cc1c(Cl)cccc1Cl
    nt | -1.7

(next part)
Values in the order – Sa helicase inh | MgrA-DNA mod
> NC(=O)CSCC(=O)Nc1ccccc1F
    11 | 0.3
> O=C1CC(C(=O)Nc2ccccc2)C2(CCCC2)O1 (stereo unspecified)
    -3 | -0.8
> COc1ccccc1C1C2=C(CCCC2=O)N(CC(=O)O)C2=C1C(=O)CCC2
    7 | -11
> O=C(N1CCN(CCO)CC1)N1c2ccccc2C=Cc2ccccc21
    -28 | nt
> COCCNS(=O)(=O)c1ccc2oc(=O)c3ncn(C)c3c2c1
    -25 | nt
> Cc1ccc(CN2CCC(CNC(=O)Nc3ccccc3)CC2)cc1
    5 | nt
> O=C(NCCNc1ncc(C(F)(F)F)cc1Cl)C1=Cc2cc(Cl)ccc2OC1
    nt | -3.6
> CCOC(=O)C1CCN(C(=O)CN2CCN(c3ccccc3O)CC2)CC1
    -9 | nt
> COc1ccc(NC(=S)N/N=C/c2ccc(Cl)cc2)cc1
    nt | -1.3
> O=C1/C(=C/c2cc(Br)cs2)CCC/C1=C\c1cc(Br)cs1
    13 | 0.3
> CCCCCCSc1n[nH]c(=O)[nH]c1=O
    -4 | -0.8
> COc1ccc2c(-c3ccccc3)cc3nnnn3c2c1
    3 | nt
> COc1nc(NCc2cccnc2)nc(N2CCSCC2)n1
    nt | -9.0
> COc1ccc(C(=O)NCc2cccnc2)cc1S(=O)(=O)N1CCCc2ccccc21
    -14 | nt
> O=C(Nc1ccc(-c2csc(-c3ccccc3)n2)cc1)c1cccs1
    2 | -2.6
> COc1cc(-c2[nH]c(=S)nc(N)c2C#N)ccc1O
    11 | 5.1
> CC1CCN(C(=O)c2ccc3c(c2)NC(=O)CN3)CC1
    25 | nt
> O=C(Nc1sc2c(c1C(=O)c1ccccc1)CCCC2)c1ccco1
    -3 | 2.2
> CCN(C(=O)C1c2ccccc2Oc2ccccc21)c1ccccc1
    2 | 2.8
> O=C1C(Cc2ccc(O)cc2)NC(=S)N1Cc1ccccc1 (stereo unspecified)
    5 | 4.6
> COc1ccc(/C(O)=C/c2nc3cc(C)ccc3oc2=O)c(OC)c1
    -92 | nt
> Cc1cc(NC(=O)C(NC(=O)c2ccc(F)cc2)C23CC4CC(CC(C4)C2)C3)no1 (stereo unspecified)
    7 | -1.1
> CSc1nnc(Cn2c(=O)sc3ccccc32)n1-c1ccccc1
    -10 | nt
> CC(C)(C)C1CCC(OCC(O)CN2CCCC2)CC1 (stereo unspecified)
    -23 | 0.2
> CC1=NNC(=O)C1CC(=O)N/N=C(/C)c1ccccc1 (stereo unspecified)
    7 | nt
> NC(N)=NS(=O)(=O)c1ccc2[nH]c(=O)oc2c1
    14 | nt
> O=C(Cc1coc2ccc3ccccc3c12)Nc1cc(C(F)(F)F)ccc1-n1cncn1
    -5 | nt
> N#CCN(CC#N)C(=O)CSc1ccccc1
    18 | 5.4
> CSCCn1c(-c2ccccc2)cc(C(=O)N2CCCC2)c1C
    nt | -0.1
> COc1ccc2c(c1)c1ncn(CCN3CCN(Cc4ccccc4)CC3)c(=O)c1n2C
    16 | nt

Further records follow.
Values in the order – Sa helicase inh | MgrA-DNA mod
> Cc1ccc2[nH]cc(CCNC(=O)CN3CCCn4nc(C)cc43)c2c1
    -9 | nt
> CCN(CC)C(=O)Cn1c(=O)cc(C)c2c(C)nn(-c3cccc(F)c3)c21
    3 | nt
> O=c1cc(O)c2c(n1-c1ccccc1)CCCCC2
    nt | -2.9
> Cc1cc(C(=O)COC(=O)/C=C/c2cccs2)c(C)n1C1CC1
    -8 | nt
> CC(C)(C)OC(=O)N1CCCN(S(=O)(=O)c2ccc3c(c2)CCO3)CC1
    25 | nt
> O=S(=O)(c1ccc(F)cc1)n1cccc1
    3 | 2.8
> CC(=O)N1C(=O)CC(C)N(C(C)=O)c2ccccc21 (stereo unspecified)
    16 | -2.0
> CN(C)c1ccc(NC(=S)c2ccccn2)cc1
    12 | nt
> CSc1nccc(-c2c(-c3ccc(Cl)cc3)noc2C)n1
    nt | 0.4
> O=C(CCn1cnc2onc(-c3ccc(F)cc3)c2c1=O)N1CCCCCC1
    12 | nt
> CC1CC2=C(CC1(CO)CO)C(C)(C)CCC2 (stereo unspecified)
    8 | -1.4
> O=C(Sc1ccc(C(F)(F)F)cn1)c1ccc(C(F)(F)F)cc1
    nt | -1.2
> O=C(c1cnccn1)N(c1ccccc1)C1(C(=O)NC2CCCCC2)CCCCC1
    -15 | nt
> N#Cc1c(N)nc2c3c1NC(O)(c1ccccc1)C(C#N)C3c1cc(Br)ccc1O2 (stereo unspecified)
    nt | -0.2
> CCOC(=O)c1c[nH]c2c(F)cc(F)cc2c1=O
    nt | 2.1&0.1
> Cc1cc(=O)oc2cc(OC(=O)CSC(=N)N)ccc12
    18 | -4.1
> COC(=O)c1ccc(C(=O)N2CCOCC2)cc1
    1 | nt
> Cc1nc(C)c(Oc2cccc(C(F)(F)F)c2)c(=O)[nH]1
    nt | -1.3
> CCOC(=O)c1c(/N=c2\oc3ccccc3cc2C(N)=O)sc2c1CCCC2
    nt | -1.4
> COc1c2occc2cc2ccc(=O)oc12
    nt | -0.3&-0.5
> O=C(NCCSc1ccccc1)c1cc(-n2cnnc2)ccc1Cl
    5 | 0.7
> O=c1[nH]c2ccc(Br)cc2c(-c2ccccc2)c1CN1CCOCC1
    12 | nt
> N#Cc1ccsc1NC(=O)CC1(CC(=O)O)CCCC1
    39 | nt
> CCc1c(C)sc(NC(=O)CN2CCN(c3ncccn3)CC2)c1C(=O)OC
    5 | 0.3
> O=C(Nc1cc2c3c(c1)CC(=O)N3CCC2)c1ccccc1
    -2 | nt
> Cc1cc(/C=C2/C(=N)N3C(=NC2=O)SN=C3S(=O)(=O)CC(C)C)c(C)n1-c1ccc(F)cc1
    30 | nt
> O=C(COc1ccccc1)NCC(=O)NC1CCCCC1
    -5 | nt
> CCOC(=O)c1cc(C)nc(Sc2ccccn2)c1C#N
    nt | -2.7
> Cn1c(CN2C(=O)CSc3ccc(C(F)(F)F)cc32)nnc1SCc1ccccc1
    nt | 0.1
> Cc1nn(Cc2ccccc2)c(Cl)c1C(=O)OCc1nc2ccc(Cl)cc2n1CCO
    0 | nt

Quoted at random: 3 compounds from above
Values in the order – Sa helicase inh | MgrA-DNA mod
> O=c1cc(O)c2c(n1-c1ccccc1)CCCCC2
    nt | -2.9
> O=c1[nH]c2ccc(Br)cc2c(-c2ccccc2)c1CN1CCOCC1
    12 | nt
> CC(C)(C)OC(=O)N1CCCN(S(=O)(=O)c2ccc3c(c2)CCO3)CC1
    25 | nt

Compound profiles, from the list above.
CC(=O)N1C(=O)CC(C)N(C(C)=O)c2ccccc21 (stereo unspecified) is entered as Sa helicase inh: 16; MgrA-DNA mod: -2.0
CCOC(=O)c1cc(C)nc(Sc2ccccn2)c1C#N is entered as Sa helicase inh: nt; MgrA-DNA mod: -2.7
O=C(Nc1cc2c3c(c1)CC(=O)N3CCC2)c1ccccc1 is entered as Sa helicase inh: -2; MgrA-DNA mod: nt

Further structures.
Values in the order – Sa helicase inh | MgrA-DNA mod
> Cc1cccc(NC(=O)Cn2c(C(F)(F)F)nc3ccccc32)c1
    nt | 2.3
> Cc1cc(CN2CC(C)OC(C)C2)cc(C)c1O (stereo unspecified)
    nt | 0.1
> COc1cc2nc(SCC(=O)NC3CC3)n(CCC3=CCCCC3)c(=O)c2cc1OC
    -8 | nt
> Cn1ncc(SCC(=O)O)c(Cl)c1=O
    -3 | -4.6
> O=c1cc(-c2ccccc2)[nH][nH]1
    13&2 | -3.3
> CCc1ccc(C(=O)c2c(S(=O)(=O)CC)c(S(=O)(=O)CC)c3cc(C(C)(C)C)ccn23)cc1
    -4 | -1.4
> N#CC1(C(=O)O)CCCC1
    -5 | nt
> O=S(=O)(c1ccccc1)N1CCN(C(c2ccccc2)c2ccccc2)CC1
    -1 | 1.5
> O=c1[nH]cc(N=Cc2ccncc2)c(=O)[nH]1
    19 | 1.8
> CC(C)NC(=O)c1cccc(Cl)c1
    3 | -0.6
> Cc1oc2ccc(O)c(CN(C)Cc3ccccc3)c2c1C(=O)NCc1ccccc1
    15 | nt
> Brc1ccc(-c2nnc3sc(CNCc4ccc5c(c4)OCO5)cn23)cc1
    12 | 0.1
> O=C(CSc1cccs1)NC1Cc2ccccc2C1
    nt | -2.0
> Cc1ccc(OC(=O)C23CC4CC(CC(C4)C2)C3)cn1
    -16 | -0.1
> COCC(=O)N(Cc1cc2cc3c(cc2nc1Cl)OCO3)CC1CCCO1 (stereo unspecified)
    2 | 16
> N#Cc1ccc(Oc2ccc(F)cc2)cc1
    nt | -0.1
> Cc1cc(NC(=O)NCC(O)c2ccccc2)c(C(F)(F)F)o1 (stereo unspecified)
    4 | nt
> CCOc1ccccc1C(=O)NCC(=O)N1CCC(C)CC1
    7 | nt
> COc1cc(CN2CCC(Cc3ccccc3)CC2)cc(OC)c1O
    18 | -0.8
> COc1ccc(N2CCN(C(=O)N3c4ccccc4Sc4ccccc43)CC2)cc1
    -41 | nt
> CC(C)(C)c1cc(C(F)(F)F)nc(N)n1
    nt | 0.0
> COc1ccc(NC(=O)Cn2c(=O)n(Cc3ccco3)c(=O)c3ccc(C(=O)NC4CCCC4)cc32)cc1
    -7 | nt
> O=C(O)CSc1c2c(nc3cc(C(=O)N4CCOCC4)ccc13)CCCC2
    -14 | nt
> COc1ccc(C(=O)Nc2sc3c(c2CN(C)C)CCCC3)cc1
    0 | nt
> O=C1c2ccccc2NC(c2cccs2)N1c1ccc2c(c1)OCCO2 (stereo unspecified)
    32 | nt
> O=C(O)CCCC(=O)Nc1ccccc1
    3 | nt
> Cc1cc(-c2csc(CC#N)n2)c(C)n1Cc1ccco1
    26 | nt
> Cc1ccc(NC(=O)C(C)C(=O)Nc2ccc(C)cc2)cc1
    19 | nt
> O=C(Nc1cccc2c1C(=O)c1ccccc1C2=O)c1cccc(Oc2ccccc2)c1
    nt | -1.2
> COc1ccc(OC)c(S(=O)(=O)Nc2cc(Cl)ccc2OC)c1
    -18 | nt

The results go on.
Values in the order – Sa helicase inh | MgrA-DNA mod
> c1ccc2c(c1)nc1n2CCSC1
    -11 | nt
> CN1CCC(N(C)Cc2ccccc2)CC1
    3 | -0.6
> COC(=O)C1=C(C)NC(C)=C(C(=O)OC)C1C(=O)OCC(=O)N1CCN(C(C)=O)CC1
    -7 | nt
> COc1nc(-c2ccccc2)nc(C)c1CC(=O)O
    9 | 3.1
> C=CCNc1cc(C)nc2nncn12
    0 | -1.2
> CC1(C)CC2CC(C)(CN2S(=O)(=O)c2ccc(F)cc2F)C1 (stereo unspecified)
    -17 | 0.8
> O=C(Nc1cccc(C(F)(F)F)c1)Nc1ccc2[nH]c(=O)[nH]c2c1
    -10 | nt
> CCOC(=O)Cn1nnc(-c2ccc(OCc3ccccc3F)cc2)n1
    2 | -2.2
> CC(C)CCNc1ncc2c(n1)CC(c1ccccc1Cl)CC2=O (stereo unspecified)
    1 | 1.4
> COc1ccc(OC)c(C2c3cccn3CCN2C(=S)NC(C)(C)C)c1 (stereo unspecified)
    6 | 1.2

Not all compounds are listed. The share of hits here may be higher or lower than overall.
